Compound activity as filed in PubChem.
FGF22 binding – FGF22 (human) thermal shift binding | recombinant FGF22 thermal shift, SYPRO orange fluorescence; percent of sucrose octasulfate shift, DMSO zero | calls only at 9.99 µM | hit rate 1.5% among 340,000 | Q9HCT0 | AID 651658;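 active = melting point raised past a set limit in the mean and every replicate; inconclusive = no clear call; three in four hits are not shown here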
Target sequence (Q9HCT0 whole entry, looked up): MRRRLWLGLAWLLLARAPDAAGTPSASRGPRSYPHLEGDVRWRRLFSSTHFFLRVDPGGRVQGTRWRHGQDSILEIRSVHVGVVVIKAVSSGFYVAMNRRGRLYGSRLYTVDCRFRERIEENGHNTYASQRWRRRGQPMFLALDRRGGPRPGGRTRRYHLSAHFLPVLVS
T cruzi repl – T. cruzi replication inhibition | T. cruzi beta-gal in NIH3T3, luminescence, 90 h | inhibition, % (no concentration beside the values) | hit rate 1.4% among 300,000 | AID 1885;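 active = mean inhibition across valid replicates above about 55%, limit read from the data; inconclusive = mean below that limit but half or more replicates reach it; inactive = mean below it, under half of replicates reach it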;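 also: signal also drops with host cell toxicity which is not excluded here; 0% = plate median of DMSO wells and 100% = zero luminescence signal; higher percent means less beta-gal luminescence so fewer parasites; stock transfer was 50 nL into about 50 µL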
AF4-AF9 inh – blocks AF4 peptide binding to human AF9. hit rate 0.47% among 350,000. inhibition, % at 10 µM. P42568. AlphaScreen, biotin-AF4 peptide binding to FLAG-AF9;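 active = every replicate reaching a set inhibition limit, whatever the replicate mean, cut at about 25% in these data; inconclusive = mean inhibition reaches that limit but some replicates miss it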;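 also: 0% = plate neutral control median and 100% = total signal loss; the record names both 10 and 1 µM as test concentration; the first replicate is given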
Target sequence (P42568 whole entry, looked up): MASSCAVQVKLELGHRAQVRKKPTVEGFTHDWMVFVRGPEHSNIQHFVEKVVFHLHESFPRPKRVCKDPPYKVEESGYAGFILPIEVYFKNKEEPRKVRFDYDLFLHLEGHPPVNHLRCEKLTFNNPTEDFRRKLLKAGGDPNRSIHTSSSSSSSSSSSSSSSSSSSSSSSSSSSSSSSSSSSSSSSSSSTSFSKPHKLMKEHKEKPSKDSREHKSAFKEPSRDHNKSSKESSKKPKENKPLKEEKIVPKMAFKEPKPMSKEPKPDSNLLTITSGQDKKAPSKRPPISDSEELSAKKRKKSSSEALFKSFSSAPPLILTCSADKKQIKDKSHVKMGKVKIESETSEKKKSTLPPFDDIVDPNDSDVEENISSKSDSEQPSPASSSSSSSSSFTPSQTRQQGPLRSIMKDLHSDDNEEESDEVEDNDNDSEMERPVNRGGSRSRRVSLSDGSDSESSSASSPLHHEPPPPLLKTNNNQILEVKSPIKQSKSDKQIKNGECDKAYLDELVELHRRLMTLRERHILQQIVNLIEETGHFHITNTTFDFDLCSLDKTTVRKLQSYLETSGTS
Ecoli rRNA inh – selective bacterial rRNA inhibition in E. coli; E. coli WT GFP vs humanized-ribosome RFP mutants, fluorescence, 24 h; hits give low values; DMSO median 0, no signal -100; GFP signal change (wild-type ribosome), % (test concentration not listed); hit rate 1.6% among 350,000; AID 720706;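 active = significant combined selectivity score with lowered wild-type GFP, culture density cut under 30%, mutant RFP and density less affected; inactive = any of these conditions unmet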; also: one replicate is shown; some compounds called inactive have numbers as strong as hits
UCH37 DUB inh – blocks the human deubiquitinase UCH37 | purified proteasome/UCH37, Ub-AMC cleavage fluorescence | inhibition, % (test concentration not listed) | hit rate 0.33% among 330,000;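 active = mean of two replicates above 20%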;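 also: 0% = compound-free wells with enzyme and 100% = wells lacking proteasome; stock transfer was 100 nL into about 20 µL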
Target sequence (Q9Y5K5 whole entry, looked up): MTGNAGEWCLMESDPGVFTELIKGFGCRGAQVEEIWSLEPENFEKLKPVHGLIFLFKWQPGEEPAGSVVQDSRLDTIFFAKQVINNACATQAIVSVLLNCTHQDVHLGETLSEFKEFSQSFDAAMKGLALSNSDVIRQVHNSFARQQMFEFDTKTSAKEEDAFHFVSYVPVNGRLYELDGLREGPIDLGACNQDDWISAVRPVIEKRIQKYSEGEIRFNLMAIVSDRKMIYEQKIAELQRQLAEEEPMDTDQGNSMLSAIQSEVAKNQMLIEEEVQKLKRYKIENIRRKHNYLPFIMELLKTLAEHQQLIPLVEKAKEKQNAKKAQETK
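Material: human UCH37 enzyme supplied as purified proteasome complex. Measure: % inhibition of Ub-AMC cleavage fluorescence. Medium: pH 7.4 Tris-HCl (50 mM) with ovalbumin, ATP-MgCl2, DTT. Times: 30 min preincubation with enzyme, 25 min cleavage at room temperature. Detection: AMC fluorescence intensity at 355/460 nm.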
Bfl-1 A1 inh – inhibitors of the anti-apoptotic protein A1, read as caspase activation; MEF A1-2A-BIM cells, Caspase-Glo 3/7 luminescence, 3 h; percent of clofoctol response, vehicle zero; caspase activation, % (concentration not given with the values); hit rate 0.066% among 330,000;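 active = over half of replicate activation scores above 10%, or exactly half above 10 with the replicate mean above 10; inconclusive = replicate mean below 10 yet half the replicates above 10; inactive = over half of replicates below 10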;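 also: wells of about 30 µL received 50 nL stock; many hits fall short of the cut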
Beta apoptosis – beta cell apoptosis inhibition; INS-1E cytokine-induced death, ATP luminescence, 48 h; percent of positive-control rescue, neutral wells zero; protection from apoptosis, % (concentration not given with the values); hit rate 0.8% among 300,000;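 active = all replicates at 75% or more, or half of them and the mean; inconclusive = half reach 75% but not the mean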;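 also: 0% = cytokine-treated negative control wells and 100% = positive control rescue; higher means more ATP so stronger rescue from cytokine killing; wells of about 40 µL received 100 nL stock; the first replicate is given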
E coli growth – blocks Escherichia coli growth | hit rate 0.21% among 330,000 | OD600 absorbance (no concentration beside the values) | OD600, 23 h; hits give low values;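 active = OD600 absorbance below the run mean of sample wells minus 3.6 SD, in any replicate, cut at about 0.56 in these data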;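 also: stock transfer was 300 nL into about 60 µL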
Ecoli rRNA inh OD600 – also measured in Ecoli rRNA inh; calls as there; OD600 change, %; measured here: OD600 growth;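 optical density of the mix in the first replicate; 0 = DMSO median and -100 = no signal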
Ecoli rRNA inh RFP – further read-out of Ecoli rRNA inh, marked with its call; RFP signal change, %; measured here: RFP humanized mutant strains;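 first replicate; 0 = DMSO median and -100 = no signal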
Active calls of the source: *; i = inactive; ? = inconclusive; . = not tested or not shown. An excerpt. The share of hits here may be higher or lower than overall.

SMILES,FGF22 binding,T cruzi repl,AF4-AF9 inh,Ecoli rRNA inh,Ecoli rRNA inh OD600,Ecoli rRNA inh RFP,UCH37 DUB inh,Bfl-1 A1 inh,Beta apoptosis,E coli growth
CC1(C)C(=O)NCCN1C(=O)CC1C(=O)NCCN1CC(c1ccccc1)c1ccccc1 (centres undefined),i,-2,-2.3,6,-6,-6.5,2.6,0.2,-1,0.65
O=C(NCC1CCCO1)c1ccc2[nH]c3c(c2c1)CCCC3 (centres undefined),i,.,3.8,3,1,2.1,-1.0,.,.,0.65
C=C1CCC(C)C(C)(CCC2=CCOC2=O)C/C=C\C=C/1C(=O)O (centres undefined),i,-1,-2.1,-8,-6,-5.5,.,0.2,.,.
N#CC1=C(N)OC2=C(C(=O)CCC2)[C@]12C(=O)N(CC(N)=O)c1ccccc12,.,-17,.,.,.,.,4.5,-1.4,1,0.69
O=C(NCC(=O)N1CCN(C(=O)c2ccccc2)CC1)c1ccc(Cl)cc1Cl,i,.,-5.5,7,4,0.6,1.9,1.5,0,0.7
O=c1cc(/C=C/c2ccccc2)oc2c1ccc1ccccc12,.,41,.,.,.,.,-5.8,-0.1,-8,.
O=C(Cc1cccc2ccccc12)NCCc1ccccc1,i,-5,-1.7,-13,-11,-2.7,3.5,0.4,-4,0.64
COC(=O)[C@H](CCSC)NC(=O)Nc1cccc(Br)c1,i,-7,-1.6,.,.,.,2.5,0.1,4,0.7
CCNc1nc(NCC)n2c(SCC(=O)Nc3cccc(F)c3)nnc2n1,i,-5,0.4,-4,-3,-4.5,-0.2,-0.5,.,0.62
C/C(=N\NC(=O)c1ccoc1C)c1cccc2ccccc12,i,-12,5.8,-13,-8,-5.8,.,-0.3,10,.
CN1C(=O)/C(=C/c2cc(N=Nc3ccccc3)ccc2O)SC1=S,.,-4,.,.,.,.,9.0,-0.3,4,0.72
COCCCN1C(=O)c2ccc(C(=O)Nc3ccccc3OC)cc2C1=O,.,-7,.,.,.,.,2.7,0.2,-4,0.71
Cc1ccc(NC(=O)CCCc2ccccc2)nc1,i,7,-0.1,-3,-5,0.9,0.5,-0.4,-20,0.65
CCN(CC(=O)NCc1ccc(F)cc1)C(=O)c1ccc(C)o1,i,-16,4.8,4,7,-3.4,5.3,-0.4,-9,0.69
Clc1c(-c2ccccc2)nc2ccccn12,i,-20,-2.9,4,1,-5.0,.,-3.9,-4,.
CCOC(=O)c1sc2nccc(N(C)C)c2c1N=CNOC,.,-4,.,.,.,.,-0.4,0.1,-7,0.74
CC(C)N(CCNC(=O)COc1ccc2oc3c(c2c1)CCCC3)C(C)C,i,12,6.8,7,5,-2.2,2.0,0.3,1,0.68
COc1ccccc1C(=O)N/N=C(\C)CC(=O)Nc1ccc2c(c1)OCCO2,i,2,-3.1,2,6,-4.1,.,-0.6,0,.
O=C(CSc1ncn(-c2ccccc2)n1)Nc1ccc2c(c1)OCO2,.,0,.,.,.,.,4.1,0.7,2,0.69
CCC(C)Nc1nc(-c2ccccn2)nc2ccccc12 (centres undefined),i,64*,5.2,-56,-79,-30,3.3,2.1,90*,0.66
Cc1c(Cl)c(-c2n[nH]c(=S)n2Cc2ccco2)nn1C,.,11,.,.,.,.,4.8,-0.3,9,0.7
CSc1scc2c1-c1nc(SCC(=O)C(C)(C)C)ncc1CC2,i,42,-1.2,-16,-9,3.7,-53,0.8,1,0.68
C=CCn1c(=O)[nH]c(=O)c2c(N)c(C(=O)c3ccc(OC)cc3)sc21,i,.,-4.3,7,5,-3.0,2.0,.,.,0.71
OC1CCCN(C(=S)Nc2ccc(SC(F)F)cc2)C1 (centres undefined),.,1,.,.,.,.,3.4,0.3,1,0.64
O=C1CC(NCc2ccccc2F)C(=O)N1c1ccccc1 (centres undefined),.,-2,.,.,.,.,-0.8,0.4,-4,0.67
CC(Oc1ccccc1)C(=O)Nc1ccccc1O (centres undefined),.,-10,.,-8,-19,-8.6,2.0,1.3,-7,0.67
O=C(N/N=C/c1ccc2cccnc2c1)c1nc2ccccc2c(=O)[nH]1,i,8,-6.3,16,1,-0.9,.,-0.4,6,.
COc1ccc(CCn2c3c(c(=O)[nH]c2=O)C(NC(=O)c2cccs2)(C(F)(F)F)C(=O)N3)cc1OC (centres undefined),.,-18,.,.,.,.,2.3,0.5,-2,0.72
COc1cccc(NC(=O)CSc2nnc(-c3ccoc3C)n2CC2CCCO2)c1 (centres undefined),.,-1,.,.,.,.,3.1,0.0,-3,0.66
O=C(Nc1ccc2c(c1)OCO2)C1CCCN1C(=O)NCc1ccccc1 (centres undefined),.,18,.,.,.,.,-1.6,-0.5,-6,0.72
CCCCn1c(N)c(N(Cc2ccccc2OC)C(=O)c2c(CC)noc2C)c(=O)[nH]c1=O,i,8,-7.2,14,10,1.3,-5.0,0.0,-3,0.69
O=C(CC(NCCN1CCOCC1)C(=O)O)Nc1cccc(Cl)c1 (centres undefined),i,-25,-0.3,7,5,1.6,0.5,0.0,-16,0.71
N#CCCN(Cc1cccnc1)S(=O)(=O)c1ccc(S(=O)(=O)N2CCCCCC2)cc1,.,-8,-11,-2,3,-9.4,2.0,0.7,-1,0.72
COc1cccc(-c2nnc(NC(=O)C(C)C)o2)c1,i,-3,?,-9,-15,-1.9,8.1,0.3,.,0.7
COc1cc(OC)c(OC)cc1/C=N/NC(=S)NCCN1CCOCC1,i,-5,-0.5,-3,6,-1.4,.,-0.7,-2,.
COCCNC(=O)c1ccc2c(=O)n(Cc3ccco3)c(SCC(=O)Nc3ccc(OC)cc3OC)nc2c1,i,2,-2.1,5,11,-0.9,0.2,0.2,2,0.68
O=C(COC(=O)C1CCCCC1)Nc1cccc(F)c1,i,.,-4.0,-1,-1,4.6,0.4,0.7,-3,0.64
Cn1c(=O)c(=O)n(C)c2cc(S(=O)(=O)CCC(=O)N3CCOCC3)ccc21,i,-3,-1.5,6,9,-1.3,0.3,0.0,-1,0.75
CCN(CC)CCN1C(=O)/C(=C\c2ccc(Cl)c([N+](=O)[O-])c2)SC1=Nc1ccc(OC)cc1,i,57*,19,-12,9,7.7,4.7,0.1,-1,0.71
Cc1cc(C(=O)N(C)CC(=O)Nc2ccc(Cl)c(C(F)(F)F)c2)no1,i,-3,2.2,4,8,-3.1,3.5,1.2,.,0.67
COc1cc(/C=C/C(=O)OCC(=O)N2CCc3ccccc3C2)ccc1O,i,-2,-5.2,-16,-17,5.8,-6.3,0.0,-1,0.69
O=C(NCCNc1ccc([N+](=O)[O-])cc1Cl)c1ccccc1F,i,-35,0.8,9,12,1.2,3.0,-0.1,3,0.69
COc1ccc(NC(=S)NN2CCOCC2)cc1OC,.,-19,.,.,.,.,2.8,0.9,-8,0.65
Nc1cccc(C(=O)O)c1,i,2,-3.4,.,.,.,0.5,-0.3,-1,0.71
Cc1ccc(NCc2nnc(SCC(=O)Nc3ncc(C)s3)n2CC2CCCO2)c(C)c1 (centres undefined),.,5,.,.,.,.,5.9,-0.1,-2,0.7
CN(C)CCCNc1cc(-c2ccccc2)nc2cc(-c3cccc(F)c3)nn12,i,49,6.6,-57,-80,-17,-349,1.3,10,0.58
CCCCN(C(=O)c1cc2c(s1)CCCCC2)c1c(N)n(CCC)c(=O)[nH]c1=O,i,.,-0.2,1,8,-1.9,2.7,-0.3,-5,0.68
Cc1c(C(=O)Nc2cccc(F)c2)cnn1-c1ccccc1,i,8,-2.4,-6,-10,-3.5,1.8,-2.9,4,0.63
COCCN(Cc1ccccc1)C(=O)Cc1ccc(S(=O)(=O)N2CCOCC2)s1,i,.,1.3,3,5,3.1,-2.0,-1.0,-6,0.69
CC(C)c1ccc(NC(=O)Cc2ccc(NC3=NC4CS(=O)(=O)CC4S3)cc2)cc1 (centres undefined),i,-23,-13,6,15,3.0,2.3,-0.1,3,0.71

Continuation:
SMILES,FGF22 binding,T cruzi repl,AF4-AF9 inh,Ecoli rRNA inh,Ecoli rRNA inh OD600,Ecoli rRNA inh RFP,UCH37 DUB inh,Bfl-1 A1 inh,Beta apoptosis,E coli growth
CCCCNC(=O)c1cccc(NC(=O)C(=O)c2ccccc2NC(C)=O)c1,i,-7,1.5,5,-4,-3.5,4.4,0.3,-7,0.7
COc1cc(S(=O)(=O)NC2CCCCC2)ccc1F,.,-5,.,.,.,.,4.1,0.5,-1,0.71
CN=C(Nc1cccc(S(=O)(=O)N2CCOCC2)c1)c1ccccc1,i,.,-1.7,.,.,.,1.3,-0.4,-3,0.72
Cc1cc(Br)cnc1NC(=S)Nc1ccc(F)cc1F,i,3,-2.8,.,.,.,1.5,-0.2,1,0.73
Cc1cc(OCC(=O)c2ccc(Br)cc2)ccc1N1C(=O)CCC1=O,.,-22,.,.,.,.,4.0,0.7,-4,0.71
O=C(CNC(=O)c1ccc(-c2ccccc2)cc1)OCc1ccc(Cl)cc1,.,6,.,.,.,.,3.1,0.2,-4,0.73
COC(=O)c1sccc1N(C)S(C)(=O)=O,i,-3,-2.4,15,20,11,2.5,0.8,-4,0.68
O=C(CCn1c2c(c3ccccc31)CCCC2)NNC(=O)c1ccccc1C(=O)O,.,3,.,.,.,.,2.7,0.9,-2,0.66
O=S(=O)(NCC1CCCO1)c1cc(Br)c(Br)s1 (centres undefined),.,7,.,.,.,.,3.6,-0.1,-8,0.76
CNC(=O)c1cc(C(=O)c2ccc(F)cc2Cl)c[nH]1,i,-4,-2.9,1,6,-8.8,0.7,-0.4,-5,0.65
Fc1cccc(Cc2noc(CN3CCN(C4CCc5ccccc5C4)CC3)n2)c1 (centres undefined),.,46,.,.,.,.,2.5,0.0,-6,0.66
Cc1nc(Nc2ccc(F)cc2)[nH]c(=O)c1CCC(C)C,.,3,.,.,.,.,4.7,0.0,17,0.64
Cc1ccc(/C=N/N(C)C2=NS(=O)(=O)c3ccccc32)cc1,i,-6,-1.1,2,7,-2.9,.,-1.9,-2,.
Cc1nc(/N=C(\N)NC(=O)NC2CCCCC2)nc2ccccc12,.,10,7.0,-42,-75,-4.0,.,0.6,58,.
COc1cc2c(cc1OC)C(C(C)C)=NC(C)(C)C2,.,-10,.,.,.,.,-153,-0.6,-1,0.7
Cc1nn(-c2ccccc2)c(C)c1/C=N/NC(=O)c1cc(O)cc(O)c1,i,-13,2.1,7,6,5.1,.,0.0,1,.
CCN(CC)S(=O)(=O)c1cccc(C(=O)NC(C(=O)Nc2nnc(C)s2)C(C)C)c1 (centres undefined),.,-18,.,.,.,.,1.6,-0.1,-3,0.8
CSc1ncccc1C(=O)NCCc1ccc(S(N)(=O)=O)cc1,i,-1,-2.4,7,7,-1.1,1.6,1.4,.,0.63
Cc1cc(N2CCOCC2)nc(SCc2ccc(Cl)cc2Cl)n1,.,12,.,.,.,.,2.4,?,.,0.75
COc1ccc(CCNC2=C(Cl)C(=O)N(Cc3ccccc3)C2=O)cc1OC,i,-5,-1.8,.,.,.,-4.1,-0.1,5,0.72
